Screens: PubChem BioAssay, National Center for Advancing Translational Sciences (NCATS)
VDR inh: inhibitors of human vitamin D receptor | Potency, µM, for the others: max response, negative = inhibition, actives largely listed as inhibitors | AID 504847 | actives 0.93% (n = 400,000) | VDR-SRC2-3 peptide fluorescence polarization, 2 h | P11473; active = well fitted inhibition curve with a large enough effect; inconclusive = small, poorly fitted or top-dose-only effect, or another doubt; inactive = no such curve, though single readings can be large or run the other way; also: series mostly up to about 120 µM
Target sequence (P11473 whole entry, looked up): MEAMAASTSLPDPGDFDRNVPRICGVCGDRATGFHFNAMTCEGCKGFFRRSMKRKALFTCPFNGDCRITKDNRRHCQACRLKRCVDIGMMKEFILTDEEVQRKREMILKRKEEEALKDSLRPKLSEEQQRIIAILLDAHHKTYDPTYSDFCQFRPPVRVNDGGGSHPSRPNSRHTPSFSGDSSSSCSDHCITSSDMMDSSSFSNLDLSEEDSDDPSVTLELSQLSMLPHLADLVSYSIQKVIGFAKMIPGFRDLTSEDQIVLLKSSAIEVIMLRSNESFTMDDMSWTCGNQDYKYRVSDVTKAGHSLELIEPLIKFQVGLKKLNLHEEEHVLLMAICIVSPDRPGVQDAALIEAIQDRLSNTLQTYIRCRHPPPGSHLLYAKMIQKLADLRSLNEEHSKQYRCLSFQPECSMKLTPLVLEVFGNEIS
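Fluorescence polarization assay of small-molecule disruption of VDR binding to coregulator peptide SRC2-3. Compounds and controls pin-transferred, then read after 2 h incubation at ambient room temperature.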
Active calls of the source: *; ? = inconclusive; & = joins results of further samples. % is scaled to controls: 0 for no effect and ±100 for the full control effect; potency is read from the fitted curve at half-maximal effect. Not all compounds are listed, so the mix of outcomes need not match the whole.

Sample of the layout, three compounds:
SMILES	VDR inh
CCNC(=O)NC(=O)C(C)OC(=O)C1CCN(S(=O)(=O)c2ccccc2C(=O)OC)CC1 (stereo not given)	1.7%
CCc1[nH]nc(C(=O)N2CCCC(C(=O)c3cccc(C(F)(F)F)c3)C2)c1C (stereo not given)	15.8%
Cc1cccc(C(=O)Nc2nc3nc(-c4ccccc4)cc(=O)n3[nH]2)c1	11.3%

The whole of this part, from the first entry:
SMILES	VDR inh
CCNC(=O)NC(=O)C(C)OC(=O)C1CCN(S(=O)(=O)c2ccccc2C(=O)OC)CC1 (stereo not given)	1.7%
CCc1[nH]nc(C(=O)N2CCCC(C(=O)c3cccc(C(F)(F)F)c3)C2)c1C (stereo not given)	15.8%
Cc1cccc(C(=O)Nc2nc3nc(-c4ccccc4)cc(=O)n3[nH]2)c1	11.3%
COc1ccc2c(C(=O)CN(C)C3CCCCC3)c[nH]c2c1	-1.1%
Cn1cc(S(=O)(=O)N2CCNCC2)cc1C(N)=O	-1.1%
C=CCN(c1ccccc1C(=O)NCC(=O)O)S(=O)(=O)c1ccccc1C	-1.5%
NC(=O)C1(N2CCCCC2)CCN(C(=O)CCCn2c(=O)[nH]c3ccsc3c2=O)CC1	0.4%
O=S(=O)(Nc1ccc(-c2nc3cccnc3s2)cc1)c1ccc(Cl)s1	2.8%
CC(=O)c1cccc(NC(=S)NC(=O)c2ccccc2C)c1	-4.9%
Cc1ccccc1CN1CCc2c(OCC(=O)N3CCCCC3)cccc2C1=O	-29.9%
O=C(COc1ccc2c(c1)oc(=O)c1ccccc12)NCC1CCC(C(=O)O)CC1 (stereo not given)	-11.1%
Cc1nc(CC(=O)c2ccc(O)cc2O)cs1	2.8%
COc1cc(/C=C(\C#N)c2nc3ccccc3[nH]2)cc(Br)c1OCc1ccc(F)cc1	-20.5%
COC(=O)C1C(=O)C(C(=O)c2ccccc2)C(=O)CC1(C)C (stereo not given)	6.9%
O=C(O)CC1=C(Nc2ccccc2)C(=O)N(c2ccccc2)C1c1ccc(Cl)cc1 (stereo not given)	?
CC(NC(=O)C[n+]1cccc(Br)c1)c1ccccc1 (stereo not given)	0.4%
COc1ccc(CC(=O)Nc2ccc(-c3noc(-c4cc(OC)c(OC)c(OC)c4)n3)cc2)cc1	-1.9%
COc1ccc2cnn(CCOc3ccccc3)c(=O)c2c1OC	-10.7%
CCN(CC)S(=O)(=O)c1cc(NC(=O)CO/N=C(\N)c2ccccc2Cl)ccc1C	0.2%
O=Cc1ccc(-n2nncc2-c2ccc([N+](=O)[O-])cc2)cc1	-3.9%
Cn1c(=O)n(CCC(=O)O)c2ccccc21	0.5%
Cc1cc(C(=O)N2CCCC(N3CCN(c4cccc(Cl)c4)CC3)C2)nn1C (stereo not given)	-10.5%
O=C(COC(=O)c1nc(Cl)ccc1Cl)NCc1ccc(Cl)cc1Cl	15.6%
O=C1C(NS(=O)(=O)c2cccs2)=C(N2CCOCC2)C(=O)c2ccccc21	-4.4%
O=C(COC(=O)/C=C/c1cccc(Cl)c1)NCCC1=CCCCC1	-11.3%
Cc1ccnc2nc(C(=O)OCCOc3ccccc3)nn12	12.9%
Cc1onc(-c2ccccc2)c1C(=O)OCC(=O)Nc1ccc(Cl)cc1	1.4%
CCc1ccc(C2=NN(CCC(=O)NC(C)c3ccc4c(c3)OCCO4)C(=O)CC2)cc1 (stereo not given)	-9.0%
CCOc1ccc(NC(=O)CN(C)C(=O)c2ccccc2CCc2ccccc2)cc1OCC	-5.0%
CCCNC(=O)c1ccc2c(c1)sc1nc(-c3ccc(C)cc3)cn12	4.8%
O=C(NNC(=O)C1CC1)c1ccc(-c2ccccc2)cc1	-10.7%
O=C1NC(=O)C(CC(=O)N(Cc2ccco2)C2(C(=O)NC3CCCCC3)CCCCC2)N1 (stereo not given)	-1.0%
NC(=O)CC(NC(=O)c1ccc(Br)cc1)c1ccc(NCCc2ccc(F)cc2)c([N+](=O)[O-])c1 (stereo not given)	-18.4%
Cc1nc(NC(=O)CN2CC(C)OC(C)C2)sc1C(=O)N(C)C (stereo not given)	3.7%
COc1ccc(OC)c(NC(=O)CSc2cn(CC(=O)N3CCOCC3)c3ccccc23)c1	6.5%
CCOC(=O)[C@H]1[C@H]2COc3ccccc3[C@@H]2N2C(=O)c3cc(C)ccc3NC(=O)[C@@]12C	-7.5%

Fetched one by one from above:
SMILES	VDR inh
Cc1onc(-c2ccccc2)c1C(=O)OCC(=O)Nc1ccc(Cl)cc1	1.4%
Cc1nc(NC(=O)CN2CC(C)OC(C)C2)sc1C(=O)N(C)C (stereo not given)	3.7%
COc1ccc(OC)c(NC(=O)CSc2cn(CC(=O)N3CCOCC3)c3ccccc23)c1	6.5%
Cc1ccnc2nc(C(=O)OCCOc3ccccc3)nn12	12.9%
CCc1ccc(C2=NN(CCC(=O)NC(C)c3ccc4c(c3)OCCO4)C(=O)CC2)cc1 (stereo not given)	-9.0%

(next part)
SMILES	VDR inh
COc1ccc(C(=O)CC(=O)c2ccc(C)cc2)c(O)c1	7.6%
Cc1cc2ncn(C(=O)c3c(-c4ccccc4Cl)noc3C)c2cc1C	-7.4%
O=C(CN(c1cccc(C(F)(F)F)c1)S(=O)(=O)c1ccc(Cl)c([N+](=O)[O-])c1)NCc1ccc(F)cc1	-21.4%
C[C@@]12C(=O)Nc3ccccc3C(=O)N1[C@H]1c3cc(Cl)ccc3OC[C@@H]1[C@@H]2c1ccccc1	4.8%
Cc1nn(CCC#N)c(NC(=O)c2ccc(Cl)cc2)c1P(=O)(Nc1ccc([N+](=O)[O-])cc1)N1CCOCC1 (stereo not given)	-15.4%
CCCC(=O)c1ccc(N2CCCC2)c(F)c1	-1.8%
CCOC(=O)c1cnc2cc(C)nn2c1C	27.1%
CCCCC(CC)COC(=O)C(C#N)=C(c1ccccc1)c1ccccc1 (stereo not given)	-20.9%&-1.0%
COCCNC(=O)CN(C(=O)c1ccc(N2CCCC2)nc1)c1ccccc1	-8.4%
CN(C)S(=O)(=O)Oc1ccc(C(=O)Nc2ccc([N+](=O)[O-])cc2)cc1	-17.9%
COc1cc(C2C(C(=O)Nc3ccc(C)cc3C)=C(C)Nc3nc4ccccc4n32)cc(OC)c1OC (stereo not given)	-7.7%
CCC1CCCCN1S(=O)(=O)c1ccccc1 (stereo not given)	-1.7%
C=C(CCO)C1=CCN(S(=O)(=O)C(C)(C)C)[C@@H]1CCO	6.9%
Cc1onc(-c2c(Cl)cccc2Cl)c1NC(=O)NNc1ccccn1	-6.0%
COc1ccc(/C=C(/NC(=O)c2ccco2)C(=O)N2CCOCC2)cc1	-1.6%
CCN1CCN(P2(=O)C=C(c3ccccc3)OC(c3ccccc3)=C2)CC1	1.8%
CCOc1ccccc1C1CC(=O)Nc2cc3c(cc21)OCO3 (stereo not given)	13.6%
O=C(c1ccc(-n2c(SCc3cc(F)ccc3F)nc3ccccc3c2=O)cc1)N1CCOCC1	-10.5%
C#CCOCCOCCOCCNc1nc(N2CCN(C(=O)CCCCCCCCCCNC(=O)[C@@H](CCSC)n3cc(CCO)nn3)CC2)nc(N2CCN(C(=O)CCCCCCCCCCNC(=O)[C@H](CO)n3cc(CCCCCN)nn3)CC2)n1	8.4%
COc1ccc(CCNc2ncnc3c2cnn3-c2ccc(F)cc2)cc1	9.1%
CCOc1ccc(S(=O)(=O)N2CCC(C(=O)NC3CCCC3)CC2)cc1	3.5%
C/C(=N\NC(=O)c1ccco1)c1cccc2ccccc12	3.8%
Cc1ccsc1C(=O)N1CCN(c2ccccn2)CC1	-1.3%
CCOC(=O)C(C)Sc1nc2c(c(-c3cccs3)c1C#N)CCC2 (stereo not given)	-0.6%
CSc1ccc(S(=O)(=O)N2CCCC2)cc1	9.1%
NC(=O)c1nsc(C(=O)N(c2ccccc2)C(C(=O)NCC2CCCO2)c2ccc3ncccc3c2)c1N (stereo not given)	-11.6%
COc1ccc(N2CCN(C(=O)CNC(=O)c3cccs3)CC2)cc1	2.0%
Cc1cc(C)nc(N2CCC(C(=O)NC3CCCCCC3)CC2)n1	-21.4%
COc1cccc(C(=O)NC(c2ccc(Cl)cc2)c2cc(Cl)c3cccnc3c2O)c1 (stereo not given)	7.5%
O=[N+]([O-])c1ccc2[nH]c3c(c2c1)CCCC3O (stereo not given)	-14.7%
O=C(NCC1CCCO1)c1cc(-c2ccccc2)nc2ccc(Br)cc12 (stereo not given)	-14.6%
Cc1cccc(NC(=O)NC(=O)c2ccccc2)n1	-20.8%
COc1ccc(NC(=S)N2CCN(S(C)(=O)=O)CC2)cc1OC	-15.4%
C=CCN(CC=C)C(=S)NC(=O)/C=C/c1ccccc1	20µM*
O=C(CN1c2cccc3cccc(c23)S1(=O)=O)NCCc1ccccc1	5.2%
COc1ccc(OC)c(N/C(C)=C/C(=O)c2ccccc2)c1	3.2%
COc1ccc(Cn2c(SCc3ccc(C(=O)NC4CCCCC4)cc3)nc3cccnc32)cc1	9.7%
CNc1ccccc1C(C)(C)c1cc(-c2cccc(OC)c2)no1	19.7%
Cc1nn(-c2ccccc2)cc1C(=S)Nc1ccccc1	-7.6%
Cc1c(C(=O)N(Cc2ccc(N(C)C)cc2)CC2CCCO2)oc2ccccc12 (stereo not given)	-5.5%&5.9%
CCCCCC(O)(CCCCC)C(=O)NNc1ccccc1	-6.1%
Cc1nc(-c2ccccc2)nn1-c1ccc([N+](=O)[O-])cc1	6.6%
COc1cccc(C(C(=O)NC(C)(C)C)N(C(=O)CCC(=O)Nc2cc(C)on2)C(C)(C)C)c1OC (stereo not given)	0.7%
CN(/N=C/c1ccc2c(c1)OCO2)c1nc(N2CCOCC2)nc(N2CCOCC2)n1	-3.6%
Cc1cc(NC2=CC(=O)C(=O)c3ccccc32)no1	?
O=C(NC1CCCCC1)C(c1ccccc1F)N(Cc1ccco1)C(=O)Cn1nnc2ccccc21 (stereo not given)	21.7%
Cc1[nH]nc2nc(SCC(=O)NC3CCCCC3)n(-c3ccc(Br)cc3)c(=N)c12	-2.0%
O=C(O)CCn1cc(C2CC(c3ccccc3)=NN2c2ccccc2)c(-c2ccccc2)n1 (stereo not given)	-19.1%
Nc1nc2ccc(C(=O)NCCOC(=O)C3CCCCC3)cc2s1	-19.9%
CC(=O)/C(=N/Nc1ccc(Br)cc1)N1CCCc2ccccc21	-17.6%
Cc1ccc2c(CN3CCC(C)CC3)cc(=O)oc2c1C	4.7%
NCCN1CCN(S(=O)(=O)c2ccc([N+](=O)[O-])cc2)C=C1c1ccc(Cl)cc1	-9.3%
COc1cccc(CNC(=O)c2cc3c(=O)n(Cc4cccnc4)ccc3nc2C)c1	10.1%
O=C(NCC1CCCN1S(=O)(=O)c1cccs1)c1cccc([N+](=O)[O-])c1 (stereo not given)	5.5%
CN(C(=O)c1cccc(NC(=O)Cc2ccc(NC(=O)C3CCN(C(=O)C4CC4)CC3)cc2)c1)C1CCCC1	-7.2%
O=C1[C@H](Cc2ccccc2)NCC=CC[C@@H](c2ccc(Cl)cc2)N1Cc1ccc(Cl)cc1	-17.0%
Cc1cc(=O)oc2cc(OCC(=O)OCc3nnc(-c4ccccc4)o3)ccc12	-12.2%
Cn1c(=O)c2ncn(CC(=O)Nc3nc(-c4ccc(Cl)cc4)cs3)c2n(C)c1=O	3.7%
COc1ccc(NC(=O)c2sc3nc[nH]c(=O)c3c2C)cc1Cl	5.0%
COCCNC(=O)C12CC3CC(CC(Cl)(C3)C1)C2	0.4%

(next part)
SMILES	VDR inh
COc1ccccc1N1CCN(C(=O)C2CCN(S(=O)(=O)c3ccc(Cl)cc3)CC2)CC1	5.0%
CCOC(=O)c1nn(-c2ccc(OCC)cc2)c(C)c1C(C)=O	-7.1%
COc1ccc(NC(=O)CSc2nnc3ccc(-c4ccccn4)nn23)c(OC)c1	-11.9%
O=C1C2CC=CCC2C(=O)N1c1nc2n(n1)C(c1ccccc1)CC(c1ccccc1)N2 (stereo not given)	1.4%
O=C(CSc1ncn[nH]1)c1ccccc1	?
Cc1nc(N2CCOCC2)[nH]c(=O)c1C(O)C(Cl)(Cl)Cl (stereo not given)	-3.5%
Cn1nnc(NC(=O)c2cccc(OCc3ccccc3)c2)n1	0.2%
O=C(O)c1ccc([N+](=O)[O-])cc1Sc1ccsc1	-25.7%
COc1cccc(Nc2nc3ccccc3nc2-n2nc(C)cc2C)c1	-18.0%
Cc1cc(N2C(=O)C3C4CC(c5ccccc5)C(C4)C3C2=O)no1 (stereo not given)	-7.5%
Cc1c(Cl)cccc1-n1c(-c2cccnc2)n[nH]c1=S	-8.4%
Cn1c(CNC(=O)CNS(=O)(=O)c2ccccc2)cc(=O)n(C)c1=O	-11.0%
CCOC(=O)C1CCN(C(=S)Nc2cccc(C)c2C)CC1	-0.9%
Cc1cc(Cl)ccc1OCCCC(=O)NCc1ccncc1	-24.1%
CCC(C)NC(=O)C(=O)NC1CCCC1 (stereo not given)	-13.3%
CCOc1cc(/C=C2\C(=O)ON=C2c2ccccc2)cc(Br)c1O	25.1µM*
O=C(O)COc1c(Cl)cc(/C=C2/NC(=O)NC2=O)cc1Br	3.2%
CCCSc1nc2c(=O)[nH][nH]c(=O)c2n1Cc1ccccc1	8.8%
NC(=O)c1cc(NC(=O)CCNS(=O)(=O)c2cccc(C(F)(F)F)c2)cc(C(N)=O)c1	-9.6%
COc1cc(/C=C(\C#N)c2nc3ccc(C)cc3[nH]2)ccc1OCc1ccc(C)cc1	-14.1%
CC(C)NS(=O)(=O)c1ccc(OCC(=O)NC(C)c2ccccc2)cc1 (stereo not given)	4.2%
Cc1sc2nc(SCC(=O)N3CCOCC3)[nH]c(=O)c2c1C	5.0%
CCOC(=O)C1=C(CSc2nc3c(cc2C#N)CN(C)CC3)OC(N)=C(C#N)C1c1ccccc1 (stereo not given)	-13.7%
Cc1ccccc1NC(=O)COc1coc(CN2CCN(Cc3ccccc3)CC2)cc1=O	-15.5%

As a short view, part of the list above.
SMILES	VDR inh
CCOC(=O)C1CCN(C(=S)Nc2cccc(C)c2C)CC1	-0.9%
Cc1cc(Cl)ccc1OCCCC(=O)NCc1ccncc1	-24.1%
